Screening results deposited in PubChem BioAssay by National Center for Advancing Translational Sciences (NCATS).
Marburg entry: inhibitors of Marburg virus binding or entry into cells. Marburg virus pseudotype entry/binding inhibition, cell-based; control for the full effect not named in the record; many of its hits are not listed in these tables. Potency, µM (top dose mostly 49.2 µM), for inactives: at the highest dose activity change, negative = inhibition, usual class: inhibitors. actives 6.5% (n = 18,000); active means well fitted inhibition curve with a large enough effect; inconclusive means small, poorly fitted or top-dose-only effect; inactive means no such curve, though single readings can be large or run the other way; tested in HEK293 cells; also: luciferase read-out
Lassa entry: Lassa virus entry inhibition; Lassa virus pseudotyped entry inhibition, cell-based qHTS; control for the full effect not named in the record; many of its hits are not listed in these tables; Potency, µM (top dose mostly 49.2 µM), inactives show at the top dose activity change, negative = inhibition, hits mostly inhibitors; actives 4.1% (n = 18,000); active = well fitted inhibition curve with a large enough effect; inconclusive = small, poorly fitted or top-dose-only effect; inactive = no such curve, though single readings can be large or run the other way; tested in HEK293 cells; also: luciferase read-out
An asterisk follows results filed as active; ? = inconclusive; . = not tested or not shown; & = joins results of further samples; [ ] = remark or other dose. % is scaled to controls: 0 for no effect and ±100 for the full control effect; potency is read from the fitted curve at half-maximal effect.

SMILES	Marburg entry	Lassa entry
CC(C)N(C[C@@H]1CSCCS(=O)(=O)N1)C1CCCCC1	?	-25%
O=C(C1CCCCC1)N(CCN1CCN(c2ccccc2CO)CC1)c1ccccn1	-22%	5%
CCCCC(CC)COC(=O)C(C#N)=C(c1ccccc1)c1ccccc1 (stereo not given)	19%	-28%
Cc1c(C(=O)N2CCCCC2c2cccnc2)sc2ncnc(NCc3cccs3)c12 (stereo not given)	7%	-3%
CC(C)(N)C(=O)N[C@@H](Cc1cnc[nH]1)C(=O)N[C@H](Cc1ccc2ccccc2c1)C(=O)N[C@H](Cc1ccccc1)C(=O)N[C@@H](CCCCN)C(N)=O	7%	5%
COc1ccccc1N1CCN(CCCCN2C(=O)CCC2=O)CC1	-5%&-20%	2%&-7%
Cc1ccccc1-n1c(C)nc2ccccc2c1=O	8%&-3%	?
CCCCCCN1C[C@@H](O)[C@H](n2cc(COC(=O)c3ccccc3)nn2)C[C@H]1c1ccc(Cl)cc1	-12%	-24%
N[C@H]1CCN(O)C1=O	12%&-20%	-6%&1%
CC(C)c1ccc2c(c1)CCC1C(C)(C(N)=O)CCCC21C (stereo not given)	-7%	-10%
O=C(NCCN1CCOCC1)c1cnn(-c2nccc(-c3cc4ccccc4o3)n2)c1C1CC1	-25%	-13%
COc1cccc(N(C)C(=S)Oc2ccc3c(c2)CCCC3)n1	?	?

Entries of single compounds from above. Screens in order: Marburg entry	Lassa entry
Record of COc1cccc(N(C)C(=S)Oc2ccc3c(c2)CCCC3)n1 → ?	?
Record of Cc1ccccc1-n1c(C)nc2ccccc2c1=O → 8%&-3%	?

Four entries from above in another layout.
| SMILES | Marburg entry | Lassa entry |
| --- | --- | --- |
| CC(C)N(C[C@@H]1CSCCS(=O)(=O)N1)C1CCCCC1 | ? | -25% |
| O=C(C1CCCCC1)N(CCN1CCN(c2ccccc2CO)CC1)c1ccccn1 | -22% | 5% |
| CCCCC(CC)COC(=O)C(C#N)=C(c1ccccc1)c1ccccc1 (stereo not given) | 19% | -28% |
| Cc1c(C(=O)N2CCCCC2c2cccnc2)sc2ncnc(NCc3cccs3)c12 (stereo not given) | 7% | -3% |

Remaining list, next part.
SMILES	Marburg entry	Lassa entry
C=CCn1c(=O)c2c(nc(-c3ccc(S(=O)(=O)O)cc3)n2C)n(C)c1=O	17%	6%
CSCC[C@H](N)C(=O)N[C@@H](C)C(=O)NCC(=O)N[C@@H](CCCN=C(N)N)C(=O)N[C@@H](CO)C(=O)NCC(=O)N[C@@H](CC(=O)O)C(=O)N[C@@H](CO)C(=O)N[C@@H](CC(=O)O)C(=O)N[C@@H](CCC(=O)O)C(=O)N[C@@H](CC(=O)O)C(=O)N[C@@H](CC(C)C)C(=O)N[C@@H](CC(C)C)C(=O)N[C@@H](CCCCN)C(=O)N[C@@H](C)C(=O)N[C@H](C(=O)O)C(C)C	4%	-12%
CCCCC/C=C\C/C=C\CCCCCCCC(=O)NCC(=O)O	12%&5%	0%&-11%
COc1ccc(CN2CCOc3ccc(C(O)c4cccnc4)cc3C2)cc1 (stereo not given)	-9%	3%
O=C(NC(CC1=CCCCC1)c1ccc2ccccc2c1)C(F)(F)F (stereo not given)	-17%[8.59 µM]	7%[8.59 µM]
C=C[C@H]1CCC=C2C(=O)CCC[C@H]21	-30%[8.59 µM]	-23%[8.59 µM]
C[C@]12C/C(=C/O)C(=O)C[C@@H]1CC[C@@H]1[C@@H]2CC[C@@]2(C)[C@H]1CC[C@]2(C)O	3%	-14%
O=C(/C=C/c1ccc(O)c(O)c1)O[C@@H]1C[C@@](OC(=O)/C=C/c2ccc(O)c(O)c2)(C(=O)O)C[C@@H](O)[C@@H]1O	6%	?
CCCCCCCCCCC[C@@H](C[C@@H]1OC(=O)[C@H]1CCCCCC)OC(=O)[C@H](CC(C)C)NC=O	?	-1%&4%
CCCCC[C@@H](/C=C/C=C\CCCCCCCCCC(=O)O)OO	-20%	-12%
C=CC(C1=CC(=O)C(OC)=CC1=O)c1ccc(OC)cc1 (stereo not given)	?	2%
C=C(C(C)=O)C(O)c1ccc(Cl)cc1 (stereo not given)	19%	-2%
FC(F)(F)c1cccc(C2=CCN(CCc3ccc4ccccc4c3)CC2)c1	-1%&4%	-1%&-27%
Cc1cnc(C)c(-c2ccc(O)c(CN3CCN(C=O)CC3)c2)n1	12%	3%
CCC(C)N(C)C(=O)c1cc2ccccc2c(-c2ccccc2Cl)n1 (stereo not given)	-11%	-10%
CCN1CCCC1CNC(=O)c1cnn(-c2ncc(C)c(-c3ccc(F)cc3)n2)c1C(C)C (stereo not given)	?	-9%
COc1ccc(-c2nc3c(c4c2C[C@H](c2ccccc2)OC4)CN(C(=O)NCc2ccco2)CC3)c(C)c1	-29%[8.59 µM]	?
COCc1ccc(CN2Cc3ccccc3OC(c3ccccc3F)C2)o1 (stereo not given)	3%	-15%
COc1cc(=O)n2c(c1C(=O)N(C)Cc1nonc1C)CCN(Cc1cc(C)ccc1C)CC2	-3%	-17%
N#Cc1cccc(CS(=O)(=O)c2nnnn2-c2cc(C(F)(F)F)cc(C(F)(F)F)c2)c1	-6%	-4%
CCCCC/C=C\C/C=C\C/C=C\C/C=C\CCCCCC(N)=O	0%	-6%
c1ccc2ccccc2c1	-7%	-12%
CCOP(=S)(OCC)SCSc1ccc(Cl)cc1	-13%	-5%
COc1cc(CN2CCCC(n3cc(C(=O)N4CCCCC4)nn3)C2)cc2c1OCO2 (stereo not given)	-18%	4%
CC(=O)N1CCC[C@H]1C(=O)NCC1Cc2cc(C)cc(-c3ccc(Cl)cc3)c2O1 (stereo not given in full)	-16%	-19%
CC(=O)OCCBr	9%	-11%
CC(C)(C)OC(=O)N1CC[C@H]1COc1cnc[c]([Sn]([CH3])([CH3])[CH3])c1	-3%[8.59 µM]	-17%[8.59 µM]
CCc1cccc2cc(C(O)CNC(C)(C)C)oc12 (stereo not given)	?	-25%
CC(C(=O)O)c1ccc(CC2CCCC2=O)cc1 (stereo not given)	7%	-18%
O=C(CS(=O)C(c1ccccc1)c1ccccc1)NO (stereo not given)	6%&18%	-3%&-5%
O=C(NCCc1ccncc1)c1cnn(-c2ncc3c(n2)-c2ccccc2CCC3)c1C1CC1	?	-7%
COC1=C(C(=O)c2ccccc2)C(=O)[C@@]2(CC=C(C)C)C[C@@H]([S+](=O)([O-])c3ccccc3)C(C)(C)[C@@]1(CC=C(C)C)C2=O	-17%[8.59 µM]	.
Nc1ccc(Cl)cc1	-1%[107 µM]	?
Cc1nc2ccc(C(=O)NCC3CCC4(CCN(Cc5cccnc5)CC4)O3)cc2nc1C (stereo not given)	?	-14%
O=C(N[C@H](c1ccccc1)C1CCCC=C1c1ccccc1)C(F)(F)F (stereo not given in full)	-24%[8.59 µM]	-20%[8.59 µM]
CCCCNC(=O)NS(=O)(=O)c1ccc(N)cc1	54%[activator]	?
CN1[C@@H](COCc2ccccc2)C=CS1(=O)=O	4%	16%
CO/N=C(\C(=O)N[C@@H]1C(=O)N2C(C(=O)O)=C(COC(C)=O)CS[C@H]12)c1csc(N)n1 (stereo in doubt)	1%	0%[17.8 µM]
C[C@H]1CC[C@@]2(NC1)O[C@@H]1C[C@H]3[C@@H]4CC=C5C[C@@H](O)CC[C@]5(C)[C@@H]4CC[C@]3(C)[C@@H]1[C@@H]2C	4%[17.8 µM]	-7%[17.8 µM]
CC(C)c1c(C(=O)N2CCN(CCO)CC2)cnn1-c1nccc(-c2cccs2)n1	-19%	-9%
COc1cc(=O)n2c(c1C(=O)N(C)Cc1nccs1)CCN(Cc1cc(C)cc(C)c1)CC2	-5%	-2%
COc1c(-c2coc3cc4c(cc3c2=O)CC(OC(C)=O)C(C)(C)O4)ccc2c1C=CC(C)(C)O2 (stereo not given)	-8%	-12%
NCCNC(=O)Cc1ccc(NC(=O)Cc2ccc(Nc3ncnc4c3ncn4[C@@H]3O[C@H](CO)[C@@H](O)[C@H]3O)cc2)cc1	7%	-2%
CC(=O)OC1CC(O)C(C)(C)C2CC(OC(C)=O)[C@]3(C)C(CC[C@@]4(C)C(c5ccoc5)OC(=O)C5OC534)[C@]12C (stereo not given in full)	-30%	-6%
C[C@]12C[C@@](C)(C=C1C=Cc1ccc(C(F)(F)F)cc1)C(=O)C[C@H]2c1ccc(C(F)(F)F)cc1	48%[activator][8.59 µM]	13%[8.59 µM]
O=C(c1ccc(Br)o1)N(Cc1ccccc1)Cc1ccccc1	-8%	-16%
COc1ccc(CCNCC(O)COc2cccc(C)c2)cc1OC (stereo not given)	?	-29%
C=C1[C@@H](O)C2C=CC[C@H](C)C(=O)[C@@](C)(O)C=C[C@@H](OC(C)=O)[C@@]23C(=O)N[C@H](Cc2ccccc2)[C@@H]3[C@@H]1C (stereo not given in full)	?	?
CC[C@H]1CN2CC[C@@H]1C[C@H]2[C@@H](O)c1ccnc2ccc(OC)cc12	?	4%[17.8 µM]
Cc1ccc(S(=O)(=O)N2CCC(=O)N(CCOCc3cccc(Cl)c3)CC2)cc1	-20%	-12%
CC[N+]1(C)C2CCC1CC(OC(=O)[C@H]1CCC(C(=O)OC3CC4CCC(C3)[N+]4(C)CC)(c3ccccc3)c3ccccc31)C2 (stereo not given in full)	?	-4%
COCCN1C(=O)N[C@@H](c2ccccc2)[C@H](C(C)=O)[C@H]1C	11%[8.59 µM]	-15%[8.59 µM]
COc1ccccc1-n1cc(C(=O)NCCN2Cc3ccccc3OC(c3ccsc3)C2)cn1 (stereo not given)	-3%	-12%
O=C(C[C@@H]1NCCC[C@H]1O)Cn1cnc2cc(Br)c(Cl)cc2c1=O	-5%	-6%
CC1(C)O[C@@H]2[C@@H](O1)C(c1ccccc1)(c1ccccc1)OP(=O)(O)OC2(c1ccccc1)c1ccccc1	?	-2%
CC(C)N1C(=O)[C@@H]2CSCCS(=O)(=O)N2C1=O	17%	7%
CN1CCN(C2CN(C3CCCCC3)S(=O)(=O)C2)CC1 (stereo not given)	-14%	-4%
CSc1ccc2cc(CNCc3ccccc3F)c(N3CCCC(CO)C3)nc2c1 (stereo not given)	-25%	-2%
CCC1C(=O)NCCN1Cc1ccc2c(c1)CN(Cc1cccc(OC)c1)CCO2 (stereo not given)	8%	-16%
CCN(CCO)C(=O)c1cnn(-c2ncc3c(n2)-c2ccccc2CCC3)c1C1CC1	41%[activator]	33%[activator]
More records.
SMILES	Marburg entry	Lassa entry
Nc1nc(O)c2ncn([C@H]3CC[C@@H](CO)O3)c2n1	-3%	-2%
CC(=O)O[C@@H](C)C#C[Si](C)(C)c1ccccc1	7%	2%
O=c1[nH]c2cc(Cl)ccc2c(O)c1-c1cccc(Oc2ccccc2)c1	-9%&-4%	-22%&-12%
CSCCC(N)C(=O)O (stereo not given)	?	-7%
CCCN=C(N)NCCC[C@H](N)C(=O)O	0%	-14%
COc1ccc(-c2cccc3c2OC(CNC(=O)c2ccccc2-n2cccn2)C3)nn1 (stereo not given)	?	-20%
COc1ccccc1C1CN(CC(=O)N2CCC(C(O)c3ccccn3)CC2)Cc2ccccc2O1 (stereo not given)	-15%	-2%
C=C1CC[C@@]2(O)[C@H]3Cc4ccc(O)c5c4[C@@]2(CCN3CC2CC2)[C@H]1O5	-12%	-14%
C[C@]12CC[C@@H]3c4ccc(O)cc4CC[C@H]3[C@@H]1C[C@@H](O)[C@@H]2O	5%	-14%
COC(=O)[C@H](Cc1ccccc1)NC(=O)O[C@H]1C(=O)c2ccc(OC)cc2O[C@@H]1c1ccc2c(c1)OCO2	3%	-17%
Cc1nc(NCc2c(F)cccc2F)sc1-c1ccn(CCN2CCOCC2)n1	4%	4%
COC(=O)CCC(=O)OC1(C)C(=O)C=C2C=C(C3CC3)OC=C2C1=O (stereo not given)	-8%	-3%

Random excerpt: two records from the list, in no set order.
SMILES	Marburg entry	Lassa entry
O=C(C[C@@H]1NCCC[C@H]1O)Cn1cnc2cc(Br)c(Cl)cc2c1=O	-5%	-6%
COc1c(-c2coc3cc4c(cc3c2=O)CC(OC(C)=O)C(C)(C)O4)ccc2c1C=CC(C)(C)O2 (stereo not given)	-8%	-12%

Carrying on.
SMILES	Marburg entry	Lassa entry
Cc1cc(C(=O)Nc2cccc(-c3nc(CNC(=O)c4sc(C)nc4C)c(C)o3)c2)c(C)o1	-6%	3%
CCCCc1nc2ccn(CC(=O)N(C)C)c(=O)c2n1Cc1ccc(-c2ccccc2-c2nn[nH]n2)cc1	17%	1%
COc1cc(C)c(CN2C[C@H](Sc3ccccn3)C[C@H]2C(=O)N(C)C)cc1C	4%	-14%
COc1ccc(C2CC(=O)Oc3ccc(C(C)(C)C)cc32)cc1 (stereo not given)	5%	-4%
COc1ccc(NS(=O)(=O)c2ccc(I)cc2)cc1N1CCN(C)CC1	?	-2%&-2%
C#CCOC(C(=O)OCCN(C)C)(c1ccccc1)c1ccccc1	-12%	-8%
C#C[C@]1(OC(C)=O)CC[C@H]2[C@@H]3CCC4=CC(=O)CC[C@@H]4[C@H]3CC[C@@]21C	1%&2%	-10%&-13%
Cc1cnc(C(=O)O)c[n+]1[O-]	11%&5%&-7%&-12%	-8%&0%&-20%&-20%
COC(=O)CN1CN(c2ccccc2)C2(CCN(Cc3ccc4ccccc4c3)CC2)C1=O	?	-2%
COC(=O)[C@@H](N)Cc1ccc(O)c(O)c1	6%	-28%
Cc1cnc(-n2ncc(C(=O)NCCN3CCOCC3)c2C2CC2)nc1-c1cccs1	-7%	-4%
Cc1ccc(CN2CCc3nnc(C(NC(=O)c4ccoc4)C(C)C)n3CC2)cc1C (stereo not given)	0%	-2%
CC1CN(Cc2cccn2-c2ncccn2)Cc2cc(Cl)ccc2O1 (stereo not given)	8%	-3%

Not all compounds are listed; count on the stated rates, not on these rows.
